Menin-MLL FL inh: inhibitors of human menin-MLL interaction, wild-type MLL peptide. Fluorescence polarization, fluorescein-MLL peptide displacement from menin. FP activity change, % at 61.4 µM. 290,000 tested, under 10 active. AID 1766; inconclusive = falling polarisation curve, or a change in total fluorescence; inactive = total fluorescence flat and polarisation flat or rising; no compound was filed as active; the % refers to the polarisation; negative = inhibition;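 note: % of control where 0% means no effect; inhibitors lower the polarisation; unlabelled MLL peptide was the positive control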
Sfp inh: blocks B. subtilis Sfp PPTase activity; Potency, µM, for the others: max response, negative = inhibition, most hits filed as inhibitors; 310,000 tested, 3.5% active; Q9F4F7; Biochemical Sfp PPTase activity, qHTS; active = well fitted inhibition curve with a large enough effect; inconclusive = small, poorly fitted or top-dose-only effect, or another doubt; inactive = no such curve, though single readings can be large or run the other way;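 note: the enzyme is Sfp with the accession as filed and its product quenches rhodamine fluorescence; potency is the fitted concentration of half-maximal effect; 0% = enzyme reaction without inhibitor and -100% = no enzyme wells; top concentration of the series not given in the record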
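Step 1, compound plus 15 nM Sfp-PPTase, 15 min, room temperature. Step 2, add rhodamine-CoA (5 uM) and BHQ-2-YbbR (12.5 uM). Step 3, read 525/598 nm fluorescence at 0 and 30 min.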
TRPV1 potentiator: human TRPV1 potentiation; 320,000 tested, 0.02% active; TRPV1-expressing cells, Fluo-8 calcium influx, capsaicin EC20 potentiation; host cell line not named in the record; control for the full effect not named in the record; potentiation, % at 8.33 µM; AID 540277; active means potentiation above 80%; inconclusive means 30% to 80%; inactive means below 30%; note: 0% is about no effect
Target sequence (Q8NER1 whole entry, looked up): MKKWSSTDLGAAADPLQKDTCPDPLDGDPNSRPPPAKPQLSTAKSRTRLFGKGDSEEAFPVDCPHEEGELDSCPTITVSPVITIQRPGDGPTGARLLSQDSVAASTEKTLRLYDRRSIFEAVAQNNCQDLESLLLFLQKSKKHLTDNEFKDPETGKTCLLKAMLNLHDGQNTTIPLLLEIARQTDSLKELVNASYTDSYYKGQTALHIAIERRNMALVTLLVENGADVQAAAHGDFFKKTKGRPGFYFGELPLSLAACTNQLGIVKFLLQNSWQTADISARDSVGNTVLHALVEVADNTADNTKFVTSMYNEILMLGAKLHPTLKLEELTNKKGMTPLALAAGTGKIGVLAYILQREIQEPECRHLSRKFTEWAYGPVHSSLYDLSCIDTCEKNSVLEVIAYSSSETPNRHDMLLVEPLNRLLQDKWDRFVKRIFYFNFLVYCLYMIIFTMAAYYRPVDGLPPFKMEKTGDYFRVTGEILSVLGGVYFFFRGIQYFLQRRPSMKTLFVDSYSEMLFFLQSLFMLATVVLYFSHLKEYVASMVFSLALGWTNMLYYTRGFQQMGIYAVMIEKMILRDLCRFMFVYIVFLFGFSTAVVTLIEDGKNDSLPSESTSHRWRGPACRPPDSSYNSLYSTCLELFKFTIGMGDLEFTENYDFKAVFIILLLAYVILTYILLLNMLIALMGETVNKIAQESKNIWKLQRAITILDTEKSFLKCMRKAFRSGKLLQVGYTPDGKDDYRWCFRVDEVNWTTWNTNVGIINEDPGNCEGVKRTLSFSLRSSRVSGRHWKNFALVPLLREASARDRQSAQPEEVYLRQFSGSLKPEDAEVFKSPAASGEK
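Cells expressing TRPV1 were dye-loaded with Fluo-8 and read kinetically: 10 s baseline, 3 min after compound (agonist portion), then 2 min after EC20 capsaicin (allosteric enhancer portion). Calcium-bound dye fluorescence at 480/520 nm.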
gsp agonist: agonists of gsp mutant (McCune-Albright syndrome); 340,000 tested, 0.13% active; Potency, µM (titrated, usually from 76.9 µM), inactives show at the highest dose activation (cAMP increase), actives largely listed as activators; gsp mutant cells, cAMP HTRF, 30 min; control for the full effect not named in the record; active = well fitted activation curve with a large enough effect; inconclusive = small, poorly fitted or top-dose-only effect, or another doubt; inactive = no such curve, though single readings can be large or run the other way; cell line not stated here;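 note: phosphodiesterase inhibitor Ro 20-1724 added with compounds to block cAMP breakdown; potency is the fitted concentration of half-maximal effect; nearly all actives have a fitted effect of over 60% in size; about a fifth of the inactives were tested at one dose only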
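Cells in DMEM/10% FBS with G418 were pretreated with compounds in DMSO plus […] (300 uM stock) for 30 min at 37C. cAMP was measured by HTRF (cAMP-d2 plus anti-cAMP antibody-K) after 30 min at room temperature.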
TRPML1 inh: inhibitors of human TRPML1 channel; Q9GZU1; TRPML1-inducible cells, Ca2+ dye fluorescence, FDSS; hits give low values; inhibition of EC80 agonist-evoked calcium signal; activity change, negative = inhibition, % (test concentration not listed); 390,000 tested, 0.02% active; AID 624415; in the data active means activity change below about -50%; inconclusive means about -30% to -50%; inactive means above about -30%;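 note: stimulus is agonist 54-4 at its EC80 concentration; % is set by controls: 0 for no effect and ±100 for the full control effect; compound concentration not given in the record; the text of the record puts the active cut at -80%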
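Calcium fluorescence in TRPML1-DL cells induced overnight with Tet: a 110 s read after compound pin addition, then a 110 s antagonist read after challenge with 54-4 at 4 uM final (EC80).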
ClpP mod: qHTS Assay for Activators of ClpP; ATP-dependent Clp protease proteolytic subunit (Bacillus subtilis (strain 168)), P80244; purified B. subtilis ClpP, FRET peptide cleavage, 20 min; Potency, µM (doses to about 57.5 µM), for the others: at the highest dose activity change, negative = active; 340,000 tested, 1.9% active; AID 651965, 2013; active = well fitted falling curve with a large enough effect; inconclusive = small, poorly fitted or top-dose-only effect; inactive = no such curve, though single readings can be large or run the other way; note: potency is the fitted concentration of half-maximal effect; the source files actives as falling curves though it sought activators and does not explain the sign; nearly all actives have a fitted effect of over 65% in size; many hits overshoot -100%
Target sequence (P80244 whole entry, looked up): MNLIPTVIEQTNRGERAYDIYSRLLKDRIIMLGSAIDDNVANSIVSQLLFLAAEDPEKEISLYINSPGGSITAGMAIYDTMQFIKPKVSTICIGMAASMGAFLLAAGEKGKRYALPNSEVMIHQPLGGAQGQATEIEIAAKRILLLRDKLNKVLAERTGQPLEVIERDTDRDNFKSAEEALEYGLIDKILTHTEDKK
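Buffer: 100 mM Tris/HCl pH8, 100 mM KCl, 0.05% low protease BSA, 2.5% glycerol, 0.01% Tween-20. ClpP 10 microg/mL final; 20 min RT; delta FRET normalized to ADEP and DMSO controls.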
gsp antag: gsp mutant antagonism; Potency, µM (doses to about 76.9 µM), without a hit: top-dose activity change, negative = inhibition, most hits filed as inhibitors; 340,000 tested, 0.4% active; gsp-mutant cells, cAMP HTRF, 30 min; control for the full effect not named in the record; active = falling curve of any shape with a large fitted effect; inconclusive = falling curve, mostly with a smaller effect; inactive = flat or rising curve; cell line not stated here;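 note: intracellular cAMP measured with PDE inhibitor Ro 20-1724 present during compound exposure; potency is the fitted concentration of half-maximal effect; % is set by controls: 0 for no effect and ±100 for the full control effect; nearly all actives have a fitted effect of over 65% in size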
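HTRF cAMP measurement after 30 min RT detection following 30 min, 37C compound treatment alongside […] (added as 300 uM solution) in G418-selected cells seeded at 2000/well and grown 16–24 h.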
Starred values were filed as active, the others as inactive; & = joins results of further samples; [ ] = remark or other dose.

`COc1ccc(CN(CC2CCC(C(=O)O)CC2)C(=S)Nc2cc(Cl)ccc2OC)cc1` (centres undefined) gave Menin-MLL FL inh -1.5, Sfp inh 40µM*, TRPV1 potentiator 13, gsp agonist inconclusive, TRPML1 inh -10, ClpP mod -1.7% and gsp antag -20%.
O=C(CCN1C(=O)C2C3C=CC(C3)C2C1=O)NCc1cccnc1 (centres undefined) was read as Menin-MLL FL inh 1.0, Sfp inh 13%, TRPV1 potentiator 7, gsp agonist 7%, TRPML1 inh 20, ClpP mod 13µM* and gsp antag 6%.
For COc1cccc(CNC(=O)CSc2ccc(-c3ccncc3)nn2)c1 the results were Menin-MLL FL inh -0.7, Sfp inh 19% and TRPV1 potentiator -6.
Screening Cc1nc2ccccn2c1-c1csc(Nc2cccc(C(=O)O)c2)n1 returned Menin-MLL FL inh 1.8, Sfp inh 79µM*, TRPV1 potentiator 25, gsp agonist 2%, TRPML1 inh 7 and gsp antag -13%.
COc1ccccc1NC(=O)C(=O)NNC(=O)c1ccco1 was read as Menin-MLL FL inh 0.6, Sfp inh -9%, TRPV1 potentiator -18, gsp agonist -26%, TRPML1 inh 40, ClpP mod 0.5% and gsp antag 1%.
COc1cccc(OC)c1C(=O)NC(=S)NCc1ccco1 was read as Menin-MLL FL inh -0.2, Sfp inh -4%, TRPV1 potentiator 4, gsp agonist -9%[15.4 µM], TRPML1 inh 3 and gsp antag 0%.
Screening Cc1ccc(-c2nnc(N3CCN(S(C)(=O)=O)CC3)c3ccccc23)cc1 returned Menin-MLL FL inh 0.0, Sfp inh -28%, TRPV1 potentiator 9, gsp agonist -3%, TRPML1 inh -8, ClpP mod 0.7% and gsp antag -26%.
COc1ccc(C(=O)N=C2SC3CS(=O)(=O)CC3N2c2ccc(C(C)=O)cc2)cc1 (centres undefined) was read as Menin-MLL FL inh 11, Sfp inh -11%, TRPV1 potentiator -1, gsp agonist 20%, TRPML1 inh 31, ClpP mod -5.9% and gsp antag inconclusive.
Screening CC(C)OCCCNC(=O)c1sc(=S)n(C)c1N returned Menin-MLL FL inh -0.5, Sfp inh 50µM*, gsp agonist -5%, TRPML1 inh -11, ClpP mod -1.6% and gsp antag -3%.
Screening CC[C@@H](C)[C@H](NC(=O)Cc1c(C)c2cc3c(C)c(C)oc3c(C)c2oc1=O)C(=O)O returned Menin-MLL FL inh -1.2, Sfp inh 6%, TRPV1 potentiator -11, gsp agonist inconclusive, TRPML1 inh 5, ClpP mod -2.5% and gsp antag -13%.
`O=C(OC1CCOC1=O)c1cc(Cl)ccc1[N+](=O)[O-]` (centres undefined) gave Sfp inh -2%, TRPV1 potentiator -6, gsp agonist -40%, TRPML1 inh -30, ClpP mod 1.6% and gsp antag 1%.
O=C(Nc1cnc2ccccc2c1)c1ccco1 was read as Menin-MLL FL inh 4.4, Sfp inh 12%, TRPV1 potentiator -8, gsp agonist 15%, TRPML1 inh -1, ClpP mod 0.0% and gsp antag 0%.
`COc1ccccc1N=C1SCC(=O)N1Cc1ccco1` gave Menin-MLL FL inh 7.1, Sfp inh 5%, TRPV1 potentiator -4, gsp agonist 2%[15.4 µM], TRPML1 inh 7 and gsp antag 0%.
Screening COc1ccc(S(C)(=O)=O)cc1S(C)(=O)=O returned Menin-MLL FL inh -1.2, Sfp inh 13%, TRPV1 potentiator 3, gsp agonist 2%, TRPML1 inh 4, ClpP mod 1.4% and gsp antag 1%.
For CC1(C)CC2(CC(c3ccc(F)cc3)c3ccc(O)cc3O2)NC(=S)N1 (centres undefined) the results were Menin-MLL FL inh 0.6, Sfp inh 13%, TRPV1 potentiator 3, gsp agonist -42%[inhibitor], TRPML1 inh 5, ClpP mod -1.5% and gsp antag -10%.
Screening OC(CN1CCN(c2ccccc2)CC1)c1ccc2c(c1)CCN2 (centres undefined) returned Menin-MLL FL inh -2.0, Sfp inh inconclusive, TRPV1 potentiator 6, gsp agonist -9%, TRPML1 inh -3, ClpP mod -2.5% and gsp antag 9%.
Screening O=C1CCN(Cc2ccccc2)CCN1[C@H](COc1ccccc1)c1ccccc1 returned Menin-MLL FL inh -3.6, Sfp inh -1%, TRPV1 potentiator -16, gsp agonist 7%, TRPML1 inh 51, ClpP mod -0.2%&0.4% and gsp antag -16%.
Screening COCCN(C(=O)CSc1nnc(-c2ccco2)n1C)c1c(N)n(CC(C)C)c(=O)[nH]c1=O returned TRPV1 potentiator 21, gsp agonist 11%, TRPML1 inh -12, ClpP mod -0.1% and gsp antag -7%.
Screening CCN(CC(=O)Nc1c(F)cccc1F)C(=O)CNC(=O)c1ccc2c(c1)OCO2 returned Sfp inh 10%, TRPV1 potentiator -36, gsp agonist inconclusive, TRPML1 inh -10, ClpP mod -10.0% and gsp antag 15%.
Cc1csc2nc(O)c(C(=O)NCC3CCCO3)c(=O)n12 (centres undefined) was read as TRPV1 potentiator -37, gsp agonist 11%[15.4 µM], TRPML1 inh -5 and gsp antag 14%.
`CC(OC(=O)c1ccc2c(c1)C(=O)N(Cc1ccncc1)C2=O)C(=O)Nc1cccc(Cl)c1Cl` (centres undefined) gave Menin-MLL FL inh inconclusive, Sfp inh -6%, TRPV1 potentiator -8, gsp agonist 10%[15.4 µM], TRPML1 inh -7, ClpP mod -2.9% and gsp antag -20%.
CC(C)(C)Nc1nc(Cl)nc(NC(C)(C)C)n1 was read as Menin-MLL FL inh 0.0, Sfp inh 23%, TRPV1 potentiator -4, gsp agonist -11%, TRPML1 inh 38, ClpP mod -17% and gsp antag 4%.
`Cc1ccccc1/C=N/Nc1ccnc2cc(Cl)ccc12` gave Menin-MLL FL inh 9.5, Sfp inh -12%, TRPV1 potentiator -14, gsp agonist 13%[15.4 µM], TRPML1 inh 9, ClpP mod -5.2% and gsp antag -17%.
`N#Cc1ccc(C(=O)Nc2ccn(-c3ccccc3)n2)cc1` gave Menin-MLL FL inh 1.1, Sfp inh 4%, TRPV1 potentiator -17, gsp agonist -24%, TRPML1 inh 7 and gsp antag -10%.
`COC(=O)C1CCN(C(=O)/C=C/c2ccccc2)CC1` gave Menin-MLL FL inh 0.7, Sfp inh 20%, TRPV1 potentiator -3, gsp agonist inconclusive, TRPML1 inh -7, ClpP mod 0.9% and gsp antag 17%.
`CC(=O)c1cc(C#N)c(NCCCN(C)C)nc1C` gave Menin-MLL FL inh 1.8, Sfp inh -1%, TRPV1 potentiator 14, gsp agonist -3%, TRPML1 inh 3 and gsp antag 5%.
`CC1CCCC(NC(=O)COC(=O)Cc2c[nH]c3ccccc23)C1C` (centres undefined) gave Menin-MLL FL inh 2.9, Sfp inh 15%, TRPV1 potentiator 25, gsp agonist 4%[15.4 µM], TRPML1 inh -10 and gsp antag 8%.
CCOC(=O)C1CC(=NO)c2ccc(OC)c(OC)c2C1 (centres undefined) was read as gsp agonist 37%, TRPML1 inh -5 and ClpP mod 4.4%.
For CC(=O)N1CCC(N(C(=O)Nc2ccc(C)c(C)c2)C2CCCC2)CC1 the results were Menin-MLL FL inh 1.4, Sfp inh 16%, TRPV1 potentiator 7, gsp agonist 2%, TRPML1 inh 1, ClpP mod 0.0% and gsp antag 1%.
For O=C(Nc1ccccc1C(=O)O)c1ccc(CN2C(=O)c3ccccc3C2=O)cc1 the results were Menin-MLL FL inh 1.6, Sfp inh -2%, TRPV1 potentiator 24, gsp agonist 3%, TRPML1 inh 18 and gsp antag inconclusive.
COc1ccc(NC(=O)CSc2nnc(CNc3ccc(C)cc3)n2C)cc1 was read as Menin-MLL FL inh 1.5, Sfp inh 9%, TRPV1 potentiator 3, gsp agonist inconclusive, TRPML1 inh -4 and gsp antag -4%.
`Cc1ccc(NC(=O)CSc2nc3nn(-c4ccccc4)c(=O)c-3c3n2CCCCC3)cc1F` gave gsp agonist -21%, TRPML1 inh 24, ClpP mod 1.2% and gsp antag inconclusive.
O=C(CSc1nc(-c2ccc(Cl)cc2)[nH]c(=O)n1)Nc1cccc(Cl)c1 was read as Menin-MLL FL inh -3.8, Sfp inh 1%, TRPV1 potentiator inconclusive, gsp agonist 6%[15.4 µM], TRPML1 inh 5 and gsp antag -13%.
CC(=O)Nc1c2c(nn1-c1ccccc1C)CSC2 was read as Menin-MLL FL inh 4.1, Sfp inh 11%, TRPV1 potentiator -1, gsp agonist -19%, TRPML1 inh 0, ClpP mod -0.6% and gsp antag 0%.
COc1ccc(NC(=O)C2CC(=O)N(c3ccccc3C)C2)c(OC)c1 (centres undefined) was read as Menin-MLL FL inh -0.6, Sfp inh inconclusive, TRPV1 potentiator 2, gsp agonist 12%[15.4 µM], TRPML1 inh -4 and gsp antag 5%.
For Cc1ccc(NC(=O)N2CCOCC2)cc1NC(=O)N1CCOCC1 the results were gsp agonist -16%, TRPML1 inh 11 and ClpP mod -2.4%.
`CCc1sc(C(=O)Nc2cccc(-n3cnnn3)c2)cc1C` gave TRPV1 potentiator -6, gsp agonist -14%, TRPML1 inh 8, ClpP mod -7.8% and gsp antag -29%.
`COc1ccc2c(CC(=O)OCC(=O)NC(=O)c3cccn3C)coc2c1` gave Menin-MLL FL inh 4.4, Sfp inh 14%, TRPV1 potentiator 12, gsp agonist 0%, TRPML1 inh -5, ClpP mod -11% and gsp antag -17%.
`O=C(COc1cccnc1[N+](=O)[O-])NCCc1ccccc1` gave Menin-MLL FL inh -1.6, Sfp inh 0%, TRPV1 potentiator 3, gsp agonist -30%[15.4 µM], TRPML1 inh 74 and gsp antag 8%.
Cc1ccc(-n2c(C)cc(/C=c3/sc4nc5ccccc5n4c3=O)c2C)cc1 was read as Menin-MLL FL inh 6.4, Sfp inh -5%, TRPV1 potentiator 0, gsp agonist inconclusive, TRPML1 inh 0, ClpP mod inconclusive and gsp antag -4%.
CC(=O)/C(C#N)=C1\NC(=O)C(Cc2ccc(F)cc2)S1 (centres undefined) was read as Menin-MLL FL inh inconclusive, Sfp inh inconclusive, TRPV1 potentiator 8, gsp agonist 9%[15.4 µM], TRPML1 inh -2 and gsp antag -24%.

Screening data deposited in PubChem BioAssay by National Center for Advancing Translational Sciences (NCATS).
